Source: PubChem
WNV protease inh – inhibitors of WNV NS2B-NS3 protease, primary screen, biochemical, fluorogenic substrate | fluorogenic substrate Ex360/Em465; hits give low values | z-score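 (tested at a level between 10 and 100 µM)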 | actives 0.18% (n = 65,000);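 active = z-score at -3 or under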;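 also: score is relative to mean and spread of the compound wells of a plate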
Target sequence (P06935 1371-1501 limits assumed): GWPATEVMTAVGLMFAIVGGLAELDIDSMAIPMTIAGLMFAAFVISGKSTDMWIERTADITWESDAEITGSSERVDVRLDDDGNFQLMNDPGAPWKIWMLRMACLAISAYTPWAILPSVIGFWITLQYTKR
Target sequence (P06935 1502-1679 limits assumed): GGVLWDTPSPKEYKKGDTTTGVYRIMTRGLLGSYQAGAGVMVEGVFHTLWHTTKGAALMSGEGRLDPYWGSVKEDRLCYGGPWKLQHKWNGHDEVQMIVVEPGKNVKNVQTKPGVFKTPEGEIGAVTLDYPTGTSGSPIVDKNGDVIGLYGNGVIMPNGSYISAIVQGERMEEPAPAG
Hsc70 ATP site – Hsc70 inhibitors, probe displacement, primary screen, biochemical, fluorescence polarization (AID 568); displacement, % at 20 µM; hits with a dose series show IC50 in µM; Hsc70 fluorescence polarization, probe displacement; higher % means a stronger effect; strong numbers were not always called active; 83,000 tested, under 10 active;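 active = displacement above 50% without optical interference and an IC50 on retest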;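 also: ATPase domain with a fluorescein-tagged ATP probe; 0% = vehicle and 100% = excess ADP; read after one hour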
MT1-MMP promoter – inhibitors of MT1-MMP promoter transcription, cell-based, luciferase reporter, luminescence (AID 618); MT1-MMP promoter luciferase reporter cells, luminescence; actives 0.62% (n = 87,000); calls from a first round at 10 µM; hits with a dose series show EC50 in µM;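 active = over half of the reporter light lost at 10 µM or EC50 under 50 µM; inactive = the rest and hits that failed the dose series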;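 also: actives suppress MT1-MMP promoter-driven transcription so potencies describe inhibitors; HT1080 fibrosarcoma cells; overnight exposure; toxic or luciferase-blocking compounds were not removed from the actives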
The depositor's hits bear a star; i = inactive; x = not tested or not shown.

Compound	WNV protease inh	Hsc70 ATP site	MT1-MMP promoter
Cc1c(NC(=O)C(C)Sc2ccc3ccccc3n2)c(=O)n(-c2ccccc2)n1C (stereo not given)	x	1.7%	i
Cc1nn(C)c(C)c1CN(C)C(=O)C1c2ccccc2Oc2ccccc21	x	-3.7%	i
Oc1ccc2oc3c(c2c1/C=N/n1cnnc1)CCCC3	0.31	5.2%	i
Cc1cc(C)nc(SCC(=O)Nc2ncc3c(n2)CC(C)(C)CC3=O)n1	-0.88	-1.5%	i
Cn1c(=O)oc2cc(S(=O)(=O)NCc3ccncc3)ccc21	0.34	-15%	i
CCOc1ccc(C(=O)NCC2OCCc3ccccc32)cc1 (stereo not given)	x	-2.8%	i
O=C(NCCOc1nc(N2CCCCC2)nc(N2CCOCC2)n1)Nc1ccccc1	-0.14	3.4%	i
COc1cc(-c2nn3c(-c4ccccn4)nnc3s2)cc(OC)c1OC	-1.2	-1.2%	i
CCCC(c1nnnn1CCOC)N(Cc1cc2cc(C)c(C)cc2[nH]c1=O)CC1CCCO1 (stereo not given)	x	0.4%	i
CCOC(=O)Cc1csc(SCC(=O)Nc2cccc(Cl)c2)n1	x	-1.2%	i
CCC(=O)N1CCN(c2ccc(Cl)cc2NC(=O)Cc2ccc(Cl)cc2)CC1	x	-1.3%	i
CCc1ccccc1NC(=O)CN(C)C(=O)CN1C(=O)NC2(CCCCCC2)C1=O	1.9	1.4%	i
CCOc1ccc(CNCc2cccnc2)cc1	x	-3.4%	i
CS(=O)(=O)N(CC(=O)N1CCN(c2cccc(Cl)c2)CC1)c1ccccc1	0.67	-4.5%	i
O=C(c1ccc(C23CC4CC(CC(C4)C2)C3)o1)N1CCOCC1	-1.4	2.0%	i
CC(Sc1nc2ccccc2n1C)C(=O)NC(c1ccccc1)c1ccccc1 (stereo not given)	x	-0.4%	i
CCCn1nnc(NC(=O)COc2cc(C)ccc2C(C)C)n1	0.38	-0.9%	i
O=C(c1ccccn1)N(Cc1ccco1)C1(C(=O)NC2CCCC2)CCCCC1	x	-4.3%	i
Cc1ccc(CSc2nc3c(c(=O)[nH]c(=O)n3C)n2CCC(C)C)cc1	-0.06	3.9%	i
Cc1ccc2nc3c(cc(C(=O)NCc4ccccc4)c(=N)n3CCCn3ccnc3)c(=O)n2c1	2.6	-32%	i

Full records from above. Screens in order: WNV protease inh, Hsc70 ATP site, MT1-MMP promoter
Cc1cc(C)nc(SCC(=O)Nc2ncc3c(n2)CC(C)(C)CC3=O)n1 across the screens: -0.88, -1.5%, i
Cn1c(=O)oc2cc(S(=O)(=O)NCc3ccncc3)ccc21 across the screens: 0.34, -15%, i

The results go on.
Compound	WNV protease inh	Hsc70 ATP site	MT1-MMP promoter
Cc1ccc(Cl)c(OCC(O)CN(CCO)CCO)c1 (stereo not given)	-0.34	1.2%	i
Cc1cccc(OCCNc2nc3c(c(=O)n(C)c(=O)n3C)n2C)c1	0.1	-11%	i
COc1ccc(-n2nc3c(c2NC(=O)c2c(F)cccc2Cl)CS(=O)C3)cc1 (stereo not given)	-0.06	2.1%	i
Cc1cc(C)nc(NC2=NCC(=O)N2c2ccc3c(c2)OCCO3)n1	-0.39	4.9%	i
CCCOc1ccc(NC(=O)C2CCCNC2=O)cc1 (stereo not given)	0.11	-1.5%	i
Cc1cc(C)c2c3c(sc2n1)C(=O)N(C)CC(=O)N3	1.1	-7.2%	i
CCOC(=O)c1c(NC(=O)CC(C)C)sc(C(C)=O)c1C	x	6.9%	i
Cc1ccc(C(=O)COC(=O)CNC(=O)c2ccco2)cc1	-0.97	-7.6%	i
CCn1cc(C(=O)NCc2ccco2)c(=O)c2cc(S(=O)(=O)N3CCCCCC3)ccc21	0.2	-1.1%	i
COCCn1c(SCc2nc3cc(OC)c(OC)cc3c(=O)[nH]2)nnc1-c1ccncc1	x	0.8%	i
O=C(OCC(=O)N1CCN(C(=O)c2ccco2)CC1)c1cc(=O)c2ccccc2o1	0.64	6.9%	i
Cc1ccc(C2=CSC3=NS(=O)(=O)CCN23)cc1C	x	1.6%	i
CN(C)C(CNS(=O)(=O)c1ccc(Br)cc1)c1cccnc1 (stereo not given)	1.2	-23%	i
CC1(C)CC(=O)c2cc(OCC(=O)NCC3CCCO3)ccc2O1 (stereo not given)	1.4	-3.1%	i
CCOC(=O)C1=C(C)NC(=O)NC1c1cn(-c2ccccc2)nc1-c1cccs1 (stereo not given)	-0.72	3.8%	i
CC(C)(C)NCC1(CO)SC(N)=NC1=O (stereo not given)	-0.59	1.8%	i
CC(C)OCCCNCc1cccs1	x	-0.1%	i
COc1ccc(OC)c(-n2nnnc2SCC(=O)NCc2ccc3c(c2)OCO3)c1	-0.61	2.2%	i
COc1ccc(C(O)Cn2c(=N)n(CCCN(C)C)c3ccccc32)cc1 (stereo not given)	1	2.6%	i
O=C1Cc2ccccc2C(=O)N1Cc1ccccc1	x	-3.5%	i
O=C(CCCC(=O)n1cnc2ccccc21)n1cnc2ccccc21	-1.1	4.5%	i
COc1cccc(CNC(=O)C2CCN(C(=O)N(C)C)CC2)c1	-0.32	5.2%	i
O=C(Cn1cc2c(n1)CCCCC2)N1CCCCC1	1.4	-0.9%	i
c1cncc(-c2nnc3sc(-c4ccco4)nn23)c1	0.69	0.5%	i
COc1ccc(-c2[nH]c(-c3ccc(F)cc3)nc2SCC(=O)NCc2ccco2)cc1OC	0.66	-0.3%	i
COC(=O)c1ccc(CSc2nc(C)nc3c2c(=O)n(C)c(=O)n3C)o1	0.46	0.0%	i
COc1cc(NC(=O)Cc2nn(C)c(=O)c3ccccc23)cc(OC)c1	-0.73	-5.2%	i
NC(=O)C1(N2CCCCC2)CCN(C2CC(=O)N(Cc3ccc(N4CCCC4=O)cc3)C2=O)CC1 (stereo not given)	x	8.4%	i
COc1ccc(CNC(=O)c2ccc3nccnc3c2)cc1	-1.2	-6.7%	i
c1ccc(Cc2nn[nH]n2)cc1	0.57	-6.2%	i
CN(C1CCCCC1)S(=O)(=O)c1ccccc1	-0.29	-0.5%	i
CCc1nc(SCC(=O)c2ccc(Cl)s2)c2oc3ccccc3c2n1	x	-2.4%	i
CCC(Oc1ccc2ccccc2c1)C(=O)O (stereo not given)	0.71	6.7%	i
N=c1ncn(CC(O)CN2CCOCC2)c2nc(N3CCOCC3)[nH]c12 (stereo not given)	0.73	-1.1%	i
c1cnc(N2CCSCC2)nc1	1.1	-0.2%	i
O=C(NCc1ccccn1)c1c(O)c2cccc3c2n(c1=O)CC3	0.38	3.0%	i
COc1ccc(-c2nnc(SCC#CCO)o2)cc1OC	0.56	-2.7%	i
CCOC(=O)CSc1nnc(CNC(=O)c2ccc(OC)cc2OC)n1C	-0.9	3.2%	i
COc1ccc(C)cc1S(=O)(=O)N(CC(=O)N1CCOCC1)Cc1ccccc1	-0.76	-0.4%	i
c1cnc(-c2nnc3n2CCCCC3)cn1	0.06	-8.4%	i

Among those listed so far, five contain a thiophene ring, fused or not:
Compound	WNV protease inh	Hsc70 ATP site	MT1-MMP promoter
Cc1cc(C)c2c3c(sc2n1)C(=O)N(C)CC(=O)N3	1.1	-7.2%	i
CCOC(=O)c1c(NC(=O)CC(C)C)sc(C(C)=O)c1C	x	6.9%	i
CCOC(=O)C1=C(C)NC(=O)NC1c1cn(-c2ccccc2)nc1-c1cccs1 (stereo not given)	-0.72	3.8%	i
CC(C)OCCCNCc1cccs1	x	-0.1%	i
CCc1nc(SCC(=O)c2ccc(Cl)s2)c2oc3ccccc3c2n1	x	-2.4%	i

The list continues:
Compound	WNV protease inh	Hsc70 ATP site	MT1-MMP promoter
O=C(CSc1nnc(-c2ccc(O)cc2)n1Cc1ccco1)N1CCc2ccccc2C1	-0.61	9.5%	i
O=C(NCCCN1CCN(Cc2ccccc2)CC1)C1CCN(S(=O)(=O)N2CCCC2)CC1	1.3	0.8%	i
Cc1ccc(Nc2cnn(C34CC5CC(CC(CC(=O)O)(C5)C3)C4)c(=O)c2Cl)cc1	x	2.4%	i
CC12CCC(C(=O)N3CCCCCC3)(OC1=O)C2(C)C (stereo not given)	x	0.6%	i
COc1cccc2c(=O)c(C(=O)NCc3cccs3)c[nH]c12	0.96	-8.1%	i
CCOc1ccc(NC(=O)c2ccccc2CO)cc1	1.4	0.5%	i
Brc1ccc(OCCn2ccnc2)cc1	1.8	1.8%	i
O=C1Nc2cc3c(cc2Sc2ccccc21)OCCO3	-0.71	1.1%	i
O=c1[nH]nc(Cc2ccc(Cl)cc2)c2ccccc12	x	0.3%	i
Cc1ccccc1-n1c(=O)cc(NCC2CCCO2)[nH]c1=O (stereo not given)	-0.52	-4.6%	i
Cc1c(OC(=O)CNC(=O)OC(C)(C)C)ccc2c3c(c(=O)oc12)CCC3	0.5	5.3%	i
COc1ccc2c(c1OC)C(=O)N(c1ncn[nH]1)C2	0.4	-3.6%	i
COc1cccc(-c2nc(CS(=O)(=O)CC(=O)Nc3cc(C)ccc3C)c(C)o2)c1	0.16	-3.2%	i
CC1=NC(=O)C(N=Nc2cccc(C(=O)O)c2)N1c1ccccc1 (stereo not given)	x	1.6%	1.6µM*
O=C(NCC1CCCO1)c1ccccc1-c1nc(-c2ccc(F)cc2)no1 (stereo not given)	-0.63	-0.1%	i
O=C(CC1c2ccccc2Oc2ccccc21)N1CCN(c2ccccn2)CC1	-0.44	-0.4%	i
O=C1C=C(Nc2ccccc2O)c2ccccc2C1=O	x	2.7%	i
CCOC(=O)c1c(COC(=O)c2ccco2)nc2ccccc2[n+]1[O-]	-0.5	-2.8%	i
COc1ccccc1-c1c(C)oc2c(CN3CCN(C)CC3)c(O)ccc2c1=O	1.4	1.9%	i
COc1cccc(NC(=O)CN2CCN(S(=O)(=O)c3ccc(C(C)C)cc3)CC2)c1	-1.4	83%	i
O=C(NC1CCCC1)C(c1cccs1)N(Cc1ccco1)C(=O)Cn1nnc(-c2cccs2)n1 (stereo not given)	-0.19	-0.2%	i
CCOC(=O)c1cnc(SCC(=O)Nc2ccc(NC(C)=O)c(OC)c2)nc1N	0.3	-0.5%	i
CCOC(=O)C12CNC(=O)C(C(=O)OCC)(CNC1=O)C2	-0.68	-5.7%	i
COc1ccc(Cn2nnnc2C(c2cc(OC)ccc2OC)N2CCC(C(N)=O)CC2)cc1 (stereo not given)	0.33	-2.9%	i
CC(C)OC(=O)C(C)Oc1ccc(C(=O)NCCc2ccccc2)cc1 (stereo not given)	x	-0.7%	i
CC(NC(=O)COc1ccccc1)C1COc2ccccc2O1 (stereo not given)	-0.49	3.8%	i
COc1cccc(-c2nc(NC(C)(C)C)c3ccccc3n2)c1O	0.13	-6.2%	i
O=C(O)c1ccc(C2SCC(=O)N2Cc2ccccc2)cc1 (stereo not given)	-1.1	-5.6%	i
COCc1nnc(SCC(=O)Nc2cccc(Cl)c2C)n1-c1ccccc1	-1.2	3.5%	i
O=C(O)c1cc2cc(OCc3ccccc3)ccc2[nH]1	-0.64	-0.8%	i
Cc1cc(C(=O)N2CCN(c3ncccn3)CC2)cs1	0.32	4.0%	i
O=C(Nc1ccc(O)cc1)C1CC=CCC1 (stereo not given)	x	-5.4%	i
Cc1nn(CC(=O)O)c(C)c1C	-0.97	-2.2%	i
Cc1onc(-c2c(Cl)cccc2Cl)c1C(=O)NCCCN1CCOCC1	-1.1	-4.8%	i
CC1CCN(c2nc3c(c(=O)n(C)c(=O)n3C)n2Cc2ccccc2)CC1	0.32	0.4%	i
CN1CCN(c2nc3c(c(=O)[nH]c(=O)n3C)n2CCSc2nc3ccccc3s2)CC1	0.21	2.5%	i
COc1ccc(C2C=C(c3ccc(Br)cc3)Nc3nc(N4C(=O)CCC4=O)nn32)cc1 (stereo not given)	-1.4	30%	i
COCCNC(=O)C(C)N(c1ccc(Oc2ccccc2)cc1)S(C)(=O)=O (stereo not given)	-0.85	-2.9%	i
N#CC(c1ccc(Cl)cc1)c1ccc(Cl)nn1 (stereo not given)	x	1.8%	i
CCOC(=O)C1=C(C)N(C)C(C)=C(C(=O)OCC)C1c1cccnc1	0.7	1.5%	i
CCCC(=O)Nc1ccc(NC(=O)C2CC2)cn1	-0.3	-0.3%	i
COc1ccc(OC)c(C2=NO[C@@H]3C(=O)N(c4cc(Cl)ccc4OC)C(=O)[C@H]23)c1	-0.38	-4.4%	i
O=C(Nc1nnc(C2CC2)s1)C1Cc2ccccc2CN1S(=O)(=O)c1cccs1 (stereo not given)	-0.5	-2.6%	i
O=C(Cn1c(=O)oc2ccccc21)Nc1ccc2c(c1)OCCO2	0.46	7.0%	i
O=c1c2ccccc2c2ccccc2c(=O)n1CC1CCCO1 (stereo not given)	0.43	3.9%	i
CCOCCn1c(CN(Cc2ccccc2)Cc2ccccc2)nc2c1c(=O)n(C)c(=O)n2C	-0.53	-1.5%	i
COc1ccc(S(=O)(=O)N(CC(=O)N2CCN(C)CC2)c2ccccc2)cc1OC	-0.47	-6.7%	i
